AmpC nodet inh: Promiscuous and Specific Inhibitors of AmpC Beta-Lactamase (assay without detergent). AmpC nitrocefin hydrolysis, absorbance 480 nm, no detergent; potencies from a single point are estimates. Potency, µM (doses to about 28.7 µM), without a hit: at the top dose activity change, negative = inhibition. 71,000 compounds, 1.8% hits. AID 585, 2007; active = falling curve, for most hits resting on a single point; inconclusive = weak or doubtful change; inactive = flat or rising curve; also: % of control where 0% means no effect; about half of the hits show no inhibition at the top dose; a quarter of the inactives give rising signals
Target sequence (P00811 whole entry, looked up): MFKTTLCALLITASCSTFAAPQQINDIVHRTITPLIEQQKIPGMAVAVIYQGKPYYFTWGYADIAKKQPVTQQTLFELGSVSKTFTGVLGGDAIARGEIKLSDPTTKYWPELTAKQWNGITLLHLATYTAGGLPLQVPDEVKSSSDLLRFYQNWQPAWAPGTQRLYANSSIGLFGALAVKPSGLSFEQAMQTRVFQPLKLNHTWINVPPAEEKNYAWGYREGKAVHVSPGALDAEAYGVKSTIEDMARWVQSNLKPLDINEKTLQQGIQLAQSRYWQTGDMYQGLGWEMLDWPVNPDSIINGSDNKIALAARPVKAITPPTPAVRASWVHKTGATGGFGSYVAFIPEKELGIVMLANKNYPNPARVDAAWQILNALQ
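AmpC in 20 mM phosphate buffer pH 7.0 was preincubated 15 min at room temperature with compounds. Nitrocefin (800 uM stock) was then added and hydrolysis followed at 480 nm every 20 s for 4 min.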
Active calls of the source: *; ? = inconclusive; & = joins results of further samples; [ ] = remark or other dose. Potency is read from the fitted curve at half-maximal effect.

SMILES	AmpC nodet inh
CCOC(=O)c1c(C)nn(Cc2cccc(Cl)c2)c1N	-1%
CCN(c1ccccc1)c1nc2ccsc2c(=O)s1	-13%
O=C(O)C1CC=CCC1C(=O)Nc1cccc(F)c1 (stereo unspecified)	2%
CCOC(=O)c1cccc(NC(=O)CSc2nc(N)cc(N)n2)c1	-15%
CCCOC(=O)c1ccc(NC(=O)c2cnccn2)cc1	18%
Cc1ccc(NC(=O)c2cc(NC(=O)c3ccco3)ccc2N2CCCCC2)cc1	-4%
CCOC(=O)c1c(C)oc2ccc(OCC(=O)N(CC)CC)cc12	60%
CCOC(=O)CN1CC23C=CC(O2)C(C(=O)Nc2ccc(F)c(C)c2)C3C1=O (stereo unspecified)	16%
Cc1cccc(NC(=O)CSc2nnc(-c3ccccc3Br)o2)c1C	-16%
CC(C)(C)OC(=O)N1CCC(C(=O)N2CCC[C@H]2C(=O)O)CC1	-7%
O=C(O)CCNc1ncnc2nc[nH]c12	-3%[5.75 µM]
CCCS(=O)(=O)N1CCCC(C(=O)NC2CCCC(C)C2C)C1 (stereo unspecified)	16%
Oc1cc(Cc2ccccc2)cnc1CN1CCOCC1	27%
O=C(Nc1ccc(OC(F)(F)F)cc1)C1CCCN(S(=O)(=O)c2cccnc2)C1 (stereo unspecified)	31%
CCOC(=O)c1ccc(NC(=O)NS(=O)(=O)c2ccc(C)cc2)cc1	4%
Cc1nc2cc(NC(=O)NCc3ccc4c(c3)OCO4)ccc2o1	-18%
O=C(NCC1COCCO1)C1CCN(S(=O)(=O)c2ccccc2)CC1 (stereo unspecified)	9%
CNc1nc2c(c(=O)[nH]c(=O)n2C)n1CCOC	6%
CCOC(=O)Cn1cc(C(=O)C2CC2)c2ccccc21	-2%
CC(C)c1nc2sc3c(SCC(=O)NCc4ccco4)ncnc3c2c2c1CCC2	15%
CC(=O)O[C@H]1CC[C@@]2(C)[C@@H](CC[C@@]3(C)[C@H]2C(=O)C=C2[C@H]4C[C@](C)(C(=O)OCCN5CCCCC5)CC[C@]4(C)CC[C@@]23C)C1(C)C	13%
CCOCCCNC(=O)CN(Cc1ccc(Cl)cc1)S(C)(=O)=O	17%
Nc1c(C(=O)NCc2cccnc2)sc(=S)n1-c1ccccc1	-3%
CC(C)C(=O)N1CCN(CCN=CC2=C(O)CC(c3ccco3)CC2=O)CC1 (stereo unspecified)	3%
O=C(O)c1cccc(N2CCCC2=O)c1	-8%

Later entries
SMILES	AmpC nodet inh
COc1ccc(N2C(=O)CC(Sc3nccc(C)n3)C2=O)cc1 (stereo unspecified)	-6%
CC1CN(C(=O)CN2C(=O)c3ccccc3C2=O)CC(C)O1 (stereo unspecified)	-1%
COc1cccc(CNc2nc3nc(C)c(Cl)c(C)n3n2)c1	29%
CC(=O)N[C@H](Cc1c[nH]c2ccccc12)C(=O)O	0%[5.75 µM]
Oc1ccc(-c2onc(C(F)(F)F)c2-c2cscn2)c(O)c1	-17%
Cc1ccc(-n2c(=O)c(C#N)cc3c(=O)n4ccccc4nc32)cc1	-11%
CCc1ccc(NS(=O)(=O)c2cccs2)cc1	-10%
Cc1cc(=O)[nH]c(SCC(=O)C23CC4CC(CC(C4)C2)C3)c1C#N	?
Cn1cnnc1SCC(=O)Nc1sc2c(c1C#N)CCCCC2	41%
CCOC(=O)c1c(C)[nH]c(C(=O)CSc2ccccc2)c1C	-18%
O=C(CCCc1ccccc1)N1CCc2ccccc21	11%
CCN(CC)[C@@H](C)CN1c2ccccc2Sc2ccccc21	-1%[12.8 µM]
COc1ccc(CCNc2c(N)n(Cc3ccccc3)c(=O)[nH]c2=O)cc1OC	56%
CCCc1nc(SCC(=O)NCc2ccco2)c2c(=O)n(C)c(=O)n(C)c2n1	21%
C=C(CO)[C@H]1Cc2c(ccc3c2O[C@H]2COc4cc(OC)c(OC)cc4[C@@H]2C3=O)O1	44%
COc1ccc(C(=O)Nn2c(C3CCC3)nc3ccccc3c2=O)c(OC)c1	46%
O=C(COc1ccc(Cl)cc1Cl)NC1CCSC1=O (stereo unspecified)	4%
CCC(=O)Nc1cccc(-c2nnc(SCC(=O)c3ccccc3)n2C)c1	20%
CCOC(=O)C1CCCN(Cc2cccc(Cl)c2)C1 (stereo unspecified)	12%
CN1CCN(C(=O)c2cccc(S(=O)(=O)N3CCCCC3)c2)CC1	-13%
O=C(CN1CCN(c2nc(-c3ccccc3)cs2)CC1)Nc1ccc2c(c1)OCO2	26%
CCOc1cc(S(=O)(=O)NCc2ccco2)c(OCC)cc1-n1cnnn1	1%
CS(=O)(=O)N(CC(=O)N1CCN(c2ccccc2F)CC1)c1cccc(C(F)(F)F)c1	86%
O=C(CC(c1ccccc1)c1cc(Br)ccc1O)NCc1ccco1 (stereo unspecified)	-18%
COc1ccccc1C(=O)NCc1ccc2c(c1)OCO2	-10%

More results follow.
SMILES	AmpC nodet inh
O=C(C1CCCN1S(=O)(=O)c1cccc2cccnc12)N1CCc2ccccc21 (stereo unspecified)	39%
O=C1CCCC(O)=C1C(C#Cc1ccccc1)C1=C(O)CCCC1=O	-2%
Fc1ccc(C(OCCN2CCN(C/C=C\c3ccccc3)CC2)c2ccc(F)cc2)cc1	13%
Cn1cccc1C(=O)N1CCC[C@@]2(CCN(C(=O)Nc3cccc(C#N)c3)C2)C1	12%
CC(=O)N1CCC2(CC1)CN(c1ccccn1)C2	-1%
COc1cccc(-c2nn(-c3ccccc3)cc2C(=O)NCC(=O)O)c1	-6%
Cc1cccc(-n2c(O)c(C=Nc3ccccc3N)c(=O)[nH]c2=O)c1	72%
Cc1ccc2c(c1)N(CCC(=O)NCCCOC(C)C)C(=O)C(C)O2 (stereo unspecified)	20%
CCOC(=O)c1c(C)[nH]c(C(=O)Cn2c(=O)oc3ccccc32)c1C	10%
CS(=O)(=O)N1CCC(C(=O)Nc2cc(C(F)(F)F)ccc2Cl)CC1	43%
Cc1cc(NCCN2CCOCC2)n2ncc(-c3ccc(Cl)cc3)c2n1	104%
COc1ccc(-c2ccc(-c3nnc(Cc4ccc(OC)c(OC)c4)o3)cc2)cc1	8%
COc1cc(C)nc(NS(=O)(=O)c2ccc(C)cc2)n1	-8%
S=c1[nH]c2ccccc2[nH]1	-4%
CN1c2ccccc2-c2nc3ccccc3n2C1c1ccncc1 (stereo unspecified)	21%
COc1ccc(OCC(=O)Nc2cc(-c3nn4c(C)nnc4s3)ccc2C)cc1	14%
COc1ccc2c(c1)c(CC(=O)O)c(C)n2C(=O)c1ccc(Cl)cc1	-1%
CN(Cc1ccc(OC(F)F)cc1)C(=O)c1ccc2nccnc2c1	22%
Cc1cc(Cl)cc(Br)c1OCCNCC(C)O (stereo unspecified)	-1%
COc1nc(OC/C(N)=N/O)nc(N2CCOCC2)n1	-4%
COc1ccc(OC)c(N=C2C(=O)Nc3ccccc32)c1	-1%
C/C(=C\C=C/[C@@H](C)C(=O)O)[C@H]1CN[C@H](C(=O)O)[C@@H]1CC(=O)O	12%
Cc1c(C(=O)O)oc2c3c(ccc12)OCCO3	5%
CCCBr	-2%
COc1ncnc2c1N[C@@](C)(O)c1c(F)c(F)c(F)c(F)c1S2	-5%

Structures above that have a Cl atom, in the order listed:
SMILES	AmpC nodet inh
CCOC(=O)c1c(C)nn(Cc2cccc(Cl)c2)c1N	-1%
CCOCCCNC(=O)CN(Cc1ccc(Cl)cc1)S(C)(=O)=O	17%
COc1cccc(CNc2nc3nc(C)c(Cl)c(C)n3n2)c1	29%
O=C(COc1ccc(Cl)cc1Cl)NC1CCSC1=O (stereo unspecified)	4%
CCOC(=O)C1CCCN(Cc2cccc(Cl)c2)C1 (stereo unspecified)	12%
CS(=O)(=O)N1CCC(C(=O)Nc2cc(C(F)(F)F)ccc2Cl)CC1	43%
Cc1cc(NCCN2CCOCC2)n2ncc(-c3ccc(Cl)cc3)c2n1	104%
COc1ccc2c(c1)c(CC(=O)O)c(C)n2C(=O)c1ccc(Cl)cc1	-1%
Cc1cc(Cl)cc(Br)c1OCCNCC(C)O (stereo unspecified)	-1%

The list goes on:
SMILES	AmpC nodet inh
CSc1ccccc1NC(=O)c1cccs1	3%
CC(=O)Nc1ccc(NC(=O)CSc2nccn2Cc2ccccc2)cc1	2%
COc1ccccc1NC(=O)Nc1ccnn1Cc1cccs1	-9%
Cc1ccc(C2CC(c3ccccc3Cl)n3nc(N)nc3N2)cc1 (stereo unspecified)	97%
Cc1oc(-c2ccc(Cl)cc2)nc1CN1CCC(C(=O)N2CCc3ccccc3C2)CC1	64%
CCn1cc(C(=O)N2CCN(Cc3ccc4c(c3)OCO4)CC2)c2cc(OC)c(OC)cc2c1=O	88%
CC(=O)Nc1sc2c(c1C#N)CC(C)(C)NC2(C)C	-9%
CCCc1cc(=O)[nH]c(SCC(=O)N(CC(C)C)C2CCS(=O)(=O)C2)n1 (stereo unspecified)	7%
CCc1ccc2[nH]c(=O)c(CN(CCN3CCOCC3)C(=O)Nc3ccccc3F)cc2c1	135%
CCn1c(=O)c(-[n+]2ccccc2)c(O)c2ccccc21	-3%
COC(=O)c1ccc(C(/C=C/[C@@H](C)C(=O)N(C)C)NC(=O)OCc2ccccc2)cc1 (stereo partly specified)	85%
CCc1nc(Nc2ccncc2)c2oc3ccccc3c2n1	-13%
O=C(NCCCNCc1ccccc1)c1ccncc1	-12%
Cc1cccc(N(C)c2cc(C)nc3nc(C)nn23)c1	27%
Cn1cccc1Cc1nnc(SCC(=O)N2CCCCCC2)n1-c1ccc(F)cc1	122%
Cc1cc2cc(CN(C(=O)C3CC3)C3CCCC3)c3nnnn3c2cc1C	100%
O=C(O)c1ccc(OC(F)(F)C(F)C(F)(F)F)cc1 (stereo unspecified)	-5%
O=C(NCc1ccccn1)[C@@H]1C[C@H]1[C@@H](NP(=O)(c1ccccc1)c1ccccc1)c1ccccc1	25%
N#Cc1c2c(c(N3CCN(c4ccccn4)CC3)n3c1nc1ccccc13)CCC2	-2%
CC(=O)OCN(C#N)c1nc(N(C)C)nc(N(C)C)n1	3%
CCCS(=O)(=O)N1CCN(C(=O)COc2ccc(-c3ccccc3)cc2)CC1	64%
CC1(C)c2ssc(=S)c2-c2ccccc2N1C(=O)c1ccco1	9%
O=C(Cc1ccccc1)Nc1ccc(NC(=O)c2ccco2)nc1	-9%
Cc1ccccc1OCC(=O)Nc1ccccc1CO	-4%
COc1cc(C(C#N)N2CCCCC2)ccc1O (stereo unspecified)	-9%

(cont.)
SMILES	AmpC nodet inh
COc1ccccc1CNc1ccnc(-c2cccc(C#N)c2)n1	28%
CCNC(=O)NC(=O)COC(=O)CCCSc1nc2ccccc2[nH]1	-13%
CCN(CC)CCNC(=O)CS(=O)Cc1nc(-c2ccc(Cl)cc2)oc1C (stereo unspecified)	14%
COc1ccc2c(c1)c1ccccc1n2C	0%
Nc1nnc(SCc2cccnc2)s1	3%
Cc1nc2cc(C(=O)O)ccc2n1-c1ccc(F)cc1F	-9%
O=C(NCc1nc2ccccc2[nH]1)c1ccc(Cl)c(S(=O)(=O)N2CCCC2)c1	-22%
CCn1c(C)c(CCC(=O)O)c(=O)n2nc(-c3ccccc3OC)cc12	-2%
CCOC(=O)COc1ccc(-c2nnc(-c3ccccc3)o2)cc1	67%
N#C/C(=C\c1ccc(O)c(O)c1)C(=O)c1ccc(O)c(O)c1	-14%
COc1cccc(Nc2ncc3nc(-c4cccs4)c(=O)n(-c4ccccc4)c3n2)c1	-1%
CN(CCOc1ccc(Cl)cc1)c1ccc(S(=O)(=O)N2CCCCC2)cn1	6%
Cc1ccc2nc(SCC(=O)Nc3cc(C)on3)[nH]c2c1	-6%
O=c1c(-c2ccccc2)nc2cncnc2n1Cc1ccccc1	28%
COc1ccc(CNc2nc(-c3ccc4c(c3)OCO4)nc3ccccc23)c(OC)c1	-14%
CCC1=[N+]([O-])C(C)(/C(C)=N\O)N(O)C1(C)C (stereo unspecified)	-1%
CCOC(=O)c1cccc(NC(=O)C(NS(=O)(=O)c2ccc3c(c2)CCN3C(C)=O)C(C)C)c1 (stereo unspecified)	-7%
O=C(CCN1C(=O)COc2ccccc21)NCc1cccnc1	-4%
O=C1CC(c2ccco2)c2ccc3ccccc3c2N1 (stereo unspecified)	17%
O=C(Nc1ccc(Cl)cc1C(=O)NCCN1CCOCC1)c1ccco1	7%
CCn1nccc1C(=O)Nc1ccc(Cl)cc1Cl	8%
CCOc1ccc(Nc2nc(Cc3nnc(SCC(=O)NCc4ccco4)n3CC)cs2)cc1	96%
Cn1nc(C(=O)NCc2ccccc2)c2ccccc2c1=O	13%
O=C1c2ccccc2CCC1C(O)c1ccccn1 (stereo unspecified)	4%
CC1(C)C(=O)C2(CCCCC2)C(=O)OC1c1ccc(O)cc1 (stereo unspecified)	0%

6 compounds drawn at random from those above:
SMILES	AmpC nodet inh
CCOC(=O)COc1ccc(-c2nnc(-c3ccccc3)o2)cc1	67%
COc1ccc2c(c1)c1ccccc1n2C	0%
Nc1nnc(SCc2cccnc2)s1	3%
COc1ccccc1CNc1ccnc(-c2cccc(C#N)c2)n1	28%
Cn1nc(C(=O)NCc2ccccc2)c2ccccc2c1=O	13%
CCn1c(C)c(CCC(=O)O)c(=O)n2nc(-c3ccccc3OC)cc12	-2%

Carrying on:
SMILES	AmpC nodet inh
COC(=O)c1sc(=S)n(-c2cc(F)ccc2F)c1N	-6%
COc1ccc(-c2noc(Cc3ccc(Cl)cc3)n2)cc1OC	89%
CN(C)S(=O)(=O)c1ccc(S(=O)(=O)N(Cc2ccco2)Cc2ccccc2Cl)cc1	-4%
Oc1cc2c(cc1O)[C@H](c1ccccc1)CNCC2	44%&-4%
O=C(c1cccc(F)c1)N1CCN(c2cccc(Cl)c2)CC1	26%
COc1cccc(CNC(=O)C2CCN(S(=O)(=O)N3CCCCC3)CC2)c1	17%
C=CCN1C(=O)C2(C(C(=O)OCC)=C(N)Oc3ccccc32)C2=C1CCCC2=O (stereo unspecified)	55%
COCCCNC(=O)c1ccc(CS(=O)(=O)c2ccc(Br)cc2)o1	20%

From PubChem BioAssay

Not all compounds are listed. The share of hits here may be higher or lower than overall.
